# Compound activity (PubChem BioAssay)
# TRPML1 inh – qHTS for Inhibitors of the Human Mucolipin Transient Receptor Potential 1 (TRPML1) | Mucolipin-1 (Homo sapiens), Q9GZU1 | TRPML1-inducible cells, Ca2+ dye fluorescence, FDSS; stronger effect = lower value; inhibition of EC80 agonist-evoked calcium signal | activity change, negative = inhibition, % (no concentration beside the values) | 390,000 compounds, 0.02% hits | AID 624415, 2012; in the data active means activity change below about -50%; inconclusive means about -30% to -50%; inactive means above about -30%;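 also: stimulus is agonist 54-4 at its EC80 concentration; % is scaled to controls: 0 for no effect and ±100 for the full control effect; compound concentration not given in the record; the text of the record puts the active cut at -80%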
# Target sequence (Q9GZU1 whole entry, looked up): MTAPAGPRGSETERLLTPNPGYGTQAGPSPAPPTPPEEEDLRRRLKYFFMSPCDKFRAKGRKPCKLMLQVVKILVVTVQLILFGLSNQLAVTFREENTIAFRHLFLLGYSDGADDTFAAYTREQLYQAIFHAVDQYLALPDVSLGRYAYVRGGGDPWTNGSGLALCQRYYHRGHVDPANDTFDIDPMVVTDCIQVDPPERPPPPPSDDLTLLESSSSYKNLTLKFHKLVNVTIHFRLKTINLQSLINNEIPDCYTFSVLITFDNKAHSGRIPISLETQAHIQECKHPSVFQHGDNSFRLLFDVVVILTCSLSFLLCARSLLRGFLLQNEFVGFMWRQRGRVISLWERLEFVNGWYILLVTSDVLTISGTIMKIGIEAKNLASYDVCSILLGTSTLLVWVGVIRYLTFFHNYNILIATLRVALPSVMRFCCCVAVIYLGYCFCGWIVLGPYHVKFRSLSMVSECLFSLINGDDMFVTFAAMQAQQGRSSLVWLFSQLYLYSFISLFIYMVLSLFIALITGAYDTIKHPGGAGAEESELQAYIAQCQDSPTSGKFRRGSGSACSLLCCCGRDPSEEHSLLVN
#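 TRPML1-DL cells, Tet-induced overnight (~16 h, 37 °C) at 1,500 cells/well, were loaded with Ca8 no-wash dye plus quencher for 45-90 min at room temperature. Compounds were pinned during FDSS kinetic reading; agonist 54-4 at EC80 (4 uM final) then added.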
# D2 agonist – Beta-Arrestin HTS for Positive Allosteric Modulators of the Human D2 Dopamine Receptor: Agonists | D(2) dopamine receptor (Homo sapiens), P14416 | DiscoveRx PathHunter D2 beta-arrestin, luminescence, 90 min; 100% = 57 uM dopamine signal | activation, % (no concentration beside the values) | 360,000 compounds, 0.084% hits | AID 624465, 2012; in the data active = activation above about 40%; inconclusive = about 15% to 40%; inactive = below about 15%; also: compound concentration not given in the record; the text of the record calls up to 30% inactive
# Target sequence (P14416 whole entry, looked up): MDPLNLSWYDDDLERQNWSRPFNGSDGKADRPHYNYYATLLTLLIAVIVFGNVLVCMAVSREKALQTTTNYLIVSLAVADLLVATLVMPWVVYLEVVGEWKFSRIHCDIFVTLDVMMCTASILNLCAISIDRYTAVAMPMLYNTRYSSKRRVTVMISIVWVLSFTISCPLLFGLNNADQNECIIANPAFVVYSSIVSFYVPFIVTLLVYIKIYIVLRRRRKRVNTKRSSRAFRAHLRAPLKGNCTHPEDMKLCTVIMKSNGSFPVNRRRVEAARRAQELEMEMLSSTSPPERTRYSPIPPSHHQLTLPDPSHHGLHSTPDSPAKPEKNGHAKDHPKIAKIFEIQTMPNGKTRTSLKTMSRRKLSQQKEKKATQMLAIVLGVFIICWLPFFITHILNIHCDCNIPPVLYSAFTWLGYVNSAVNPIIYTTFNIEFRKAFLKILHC
#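 Agonist mode: compounds alone added to overnight-plated D2 PathHunter cells for 90 min at 37 C, with 57 uM final dopamine (EC100) defining full response. Beta-arrestin recruitment detected by chemiluminescent reagent, read after 1 h at ambient temperature.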
# D2 PAM – Beta-Arrestin HTS for Positive Allosteric Modulators of the Human D2 Dopamine Receptor: Potentiators; D(2) dopamine receptor (Homo sapiens), P14416; DiscoveRx D2 beta-arrestin cells, luminescence, 90 min; 100% = 57 uM dopamine signal; potentiation, % (concentration not given with the values); 360,000 compounds, 0.23% hits; active = potentiation of 50% or more; inconclusive = 30% to 50%; inactive = 30% or less;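 also: tested on top of an EC20 dose of dopamine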
#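 D2 cells co-treated with compound plus 50 nM dopamine (EC20) for 90 min at 37 deg C to detect potentiation. Beta-arrestin recruitment was read as enzyme-fragment luminescence after 1 h at ambient temperature. Full response was set by 57 uM dopamine.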
# TRPML1 agonist – qHTS for Agonists of the Human Mucolipin Transient Receptor Potential 1 (TRPML1) | activation, % (no concentration beside the values) | TRPML1-expressing cells, Ca2+ dye fluorescence, FDSS; host cell line not named in the record; reference of the full effect not given here | AID 624414, 2012 | 410,000 compounds, 0.12% hits | Mucolipin-1 (Homo sapiens), Q9GZU1; in the data active = activation above about 50%; inconclusive = about 30% to 50%; inactive = below about 30%; also: 0% is about no effect; the text of the record puts the active cut at 80%
#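 In this qHTS format, compounds were pin-transferred onto Ca8-dye-loaded TRPML1-DL cells induced with Tet overnight, and intracellular Ca2+ fluorescence was recorded kinetically for 110 s after a 10 s baseline. A subsequent 4uM final 54-4 (EC80) addition followed by a second 110 s read served as the antagonist phase.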
# PINK1 modulator – A Quantitative High throughput Screen to Identify Chemical Modulators of PINK1 Expression | PINK1 immunofluorescence, high-content cytometry, 24 h | Potency, µM (top dose mostly 76.6 µM), for the others: at the highest dose activation (PINK1 increase), hits mostly activators | AID 624263, 2012 | 410,000 compounds, 0.2% hits; active = well fitted activation curve with a large enough effect; inconclusive = small, poorly fitted or top-dose-only effect; inactive = flat fitted curve, though single readings scatter; cell line not stated here;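 also: potency is read from the fitted curve at half-maximal effect; % of control where 0% means no effect; nearly all actives have a fitted effect of over 65% in size; a mitochondrial uncoupler was the plate control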
#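 Compound titrations (5 concentrations, 24 h) on a stable cell line; DMSO and CCCP controls. Endpoint: fixed-cell PINK1 immunofluorescence with mitochondrial, cell and nuclear markers, scanned by microplate cytometer.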
# Six1-Eya2 inh – qHTS Assay for Inhibitors of the Six1/Eya2 Interaction | Homeobox protein SIX1 (Homo sapiens) + Protein phosphatase EYA2 (Homo sapiens), … | AlphaScreen GST-Six1/His-Eya2 binding, biochemical; stronger effect = lower value; control for the full effect not named in the record | activity change, % (test concentration not listed) | 360,000 compounds, 0.56% hits | AID 651725, 2012; in the data active = activity change below about -65%; inconclusive = about -30% to -65%; inactive = above about -30%; also: % is scaled to controls: 0 for no effect and ±100 for the full control effect
#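 Six1/Eya2 binding was read as AlphaScreen signal after compounds were pinned into GST-Six1 plus His-tagged Eya2 (5X stock 250/500 nM) in pH 8.0 Tris/NaCl/TCEP buffer, beads added, then incubated 1 h, 37 C, dark.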
# An asterisk follows results filed as active; ? = inconclusive; nt = not tested or not shown; & = joins results of further samples; [ ] = remark or other dose.
1. Cc1nn(-c2ccccc2)c(C)c1/C=C/C(=O)OCC(=O)N(C)C1CCS(=O)(=O)C1 (configuration not stated)
2. CCn1c(SCc2cccc(OC)c2)nc2ccccc2c1=O
3. COc1cccc(CN2CCN(C3CCN(c4cccc(C)c4C)CC3)CC2CCO)c1 (configuration not stated)
4. COc1cccc(CN(C)CC(=O)Nc2cccc(C(F)(F)F)c2)c1OC
5. O=C(Nc1cc(C(F)(F)F)ccc1N1CCOCC1)c1ccc(F)cc1
6. Cn1c(CNC(=O)c2ccccc2F)nnc1SCC(=O)Nc1nnc(C2CC2)s1
assay / compound	1	2	3	4	5	6
TRPML1 inh	14	4	-4	-6	32	20
D2 agonist	-1.3	-0.8	?	3.2	-1.4	-0.4
D2 PAM	-6	-3	15	-13	-5	-3
TRPML1 agonist	-1.0	0.4	0.6	0.5	0.4	0.2
PINK1 modulator	3.7%	13%	4.3%	5.5%	2.2%	-1.6%
Six1-Eya2 inh	0	33	-15	7	14	-2

# 3 of the entries above in order of the D2 PAM value, highest first:
No. | canonical_smiles | D2 PAM
3 | COc1cccc(CN2CCN(C3CCN(c4cccc(C)c4C)CC3)CC2CCO)c1 (configuration not stated) | 15
6 | Cn1c(CNC(=O)c2ccccc2F)nnc1SCC(=O)Nc1nnc(C2CC2)s1 | -3
5 | O=C(Nc1cc(C(F)(F)F)ccc1N1CCOCC1)c1ccc(F)cc1 | -5

# Following part:
7. COc1ccccc1NC(=S)NNC(=O)c1ccc(Cl)cc1Cl
8. COc1ccc(C2=CC(=O)CCC2)cc1
9. CCc1cc2c(=O)c(-c3nc4ccccc4[nH]3)coc2c(CN2CCCCC2C)c1O (configuration not stated)
10. COCCn1c(C)cc(O)c(C(c2ccccc2)N2CCN(c3ccccc3)CC2)c1=O (configuration not stated)
11. Cn1cccc1-c1cc(C(=O)N/N=C/C=C/c2ccccc2)[nH]n1
12. C=CCN1CCS(=O)(=O)N(Cc2ccccc2)[C@@H](C(C)C)C1=O
assay / compound	7	8	9	10	11	12
TRPML1 inh	-11	1	26	-2	40	0
D2 agonist	-6.9	-1.7	-2.1	nt	6.4	-7.1
D2 PAM	-23	-1	-15	nt	-2	-8
TRPML1 agonist	-0.8	-0.9	1.1	-0.5	2.9	-0.3
PINK1 modulator	-1.5%	1.3%	2.7%	-0.7%	1.5%	1.5%
Six1-Eya2 inh	-8	2	-8	nt	-25	4

# Some entries already given, reduced to D2 agonist and PINK1 modulator.
cpd	SMILES	D2 agonist	PINK1 modulator
11	Cn1cccc1-c1cc(C(=O)N/N=C/C=C/c2ccccc2)[nH]n1	6.4	1.5%
4	COc1cccc(CN(C)CC(=O)Nc2cccc(C(F)(F)F)c2)c1OC	3.2	5.5%

# 4 compounds picked at random from the list so far, as already listed:
11. Cn1cccc1-c1cc(C(=O)N/N=C/C=C/c2ccccc2)[nH]n1
8. COc1ccc(C2=CC(=O)CCC2)cc1
12. C=CCN1CCS(=O)(=O)N(Cc2ccccc2)[C@@H](C(C)C)C1=O
9. CCc1cc2c(=O)c(-c3nc4ccccc4[nH]3)coc2c(CN2CCCCC2C)c1O (configuration not stated)
assay / compound	11	8	12	9
TRPML1 inh	40	1	0	26
D2 agonist	6.4	-1.7	-7.1	-2.1
D2 PAM	-2	-1	-8	-15
TRPML1 agonist	2.9	-0.9	-0.3	1.1
PINK1 modulator	1.5%	1.3%	1.5%	2.7%
Six1-Eya2 inh	-25	2	4	-8

# (further entries)
13. Cc1ccc(CN2C(=O)c3ccccc3C2c2nnnn2-c2c(C)cccc2C)cc1 (configuration not stated)
14. Cc1cccc(N(C)C(=O)CN2C(=O)COc3ccc(S(=O)(=O)N4CCCCCC4)cc32)c1
15. CCCOc1ccc(-c2nc(C#N)c(NCC3CCCO3)o2)cc1 (configuration not stated)
16. Cc1ccc(Nc2ncnc3c2nnn3Cc2ccccc2)cc1
17. O=C(O)COc1ccccc1C(Nc1ccccn1)c1cc(Cl)c2cccnc2c1O (configuration not stated)
18. CC(NC(=O)C(=O)N1CCOCC1)C(c1cccs1)N1CCN(c2ccccc2F)CC1 (configuration not stated)
assay / compound	13	14	15	16	17	18
TRPML1 inh	nt	-6&16	20	24	-19	-9
D2 agonist	nt	1.2	1.0	-9.3	-3.0	1.6
D2 PAM	nt	-11	-7	-4	10	-1
TRPML1 agonist	2.1	5.2&5.7	1.3	2.4	-0.7	0.2
PINK1 modulator	2.5%	0.4%&-0.8%	1.5%[38.3 µM]	0.4%	-0.5%	2.3%
Six1-Eya2 inh	22	2	-11	3	?	1

# Some of the entries above, reformatted.
item | Compound | TRPML1 inh | D2 agonist | D2 PAM | TRPML1 agonist | PINK1 modulator | Six1-Eya2 inh
2 | CCn1c(SCc2cccc(OC)c2)nc2ccccc2c1=O | 4 | -0.8 | -3 | 0.4 | 13% | 33
13 | Cc1ccc(CN2C(=O)c3ccccc3C2c2nnnn2-c2c(C)cccc2C)cc1 (configuration not stated) | nt | nt | nt | 2.1 | 2.5% | 22
5 | O=C(Nc1cc(C(F)(F)F)ccc1N1CCOCC1)c1ccc(F)cc1 | 32 | -1.4 | -5 | 0.4 | 2.2% | 14
16 | Cc1ccc(Nc2ncnc3c2nnn3Cc2ccccc2)cc1 | 24 | -9.3 | -4 | 2.4 | 0.4% | 3

# New compounds follow.
19. c1ccc(Cc2nnc(SCc3nc(-c4cccs4)no3)n2-c2ccccc2)cc1
20. COc1cc(OC)cc(N(C(=O)c2ccco2)C(C(=O)NC2CCCC2)c2ccc(N3CCOCC3)cc2)c1 (configuration not stated)
21. CCCCn1c(SCC(=O)NNC(=O)c2ccccc2)n[nH]c1=O
22. CCCCc1cc(=O)oc2cc(OC(C)C(=O)NCCN3CCOCC3)ccc12 (configuration not stated)
23. O=C1CCC([N+](=O)[O-])C(c2cccc(Br)c2)N1 (configuration not stated)
24. Cc1cc(C)n2nc(N)c(N=Nc3ccccc3)c2n1
assay / compound	19	20	21	22	23	24
TRPML1 inh	-10	-5	-1	-5	12	5
D2 agonist	nt	-15	-2.1	-0.2	0.8	-1.6
D2 PAM	nt	-5	-5	-29	-3	-12
TRPML1 agonist	-0.8	-0.9	0.1	-0.3	1.9	-0.1
PINK1 modulator	-1.2%	0.3%	0.3%	-0.3%	1.2%	2.0%
Six1-Eya2 inh	nt	-25	2	2	2	-24

25. CSc1ccccc1NC(=O)C(=O)c1c[nH]c2ccccc12
26. COCCCN(C(=O)Nc1ccc(C)c(C)c1)C(C)c1ccccn1 (configuration not stated)
27. Cc1cc(C(=O)COc2ccccc2Cl)c(C)n1C1CC1
28. COc1ccccc1N1CCN(C(c2cccs2)C(C)NC(=O)c2ccncc2)CC1 (configuration not stated)
29. CCc1ccc(OCC2c3cc(OC)c(OC)cc3CCN2C(=O)COc2ccccc2)cc1 (configuration not stated)
30. COCCNC(=O)CCC(=O)NNc1nc2ccccc2c2nc(C)nn12
assay / compound	25	26	27	28	29	30
TRPML1 inh	-8	1	18	7	59	-1&12
D2 agonist	-0.3	-2.9	2.9	-5.5	nt	-3.5
D2 PAM	1	-2	-2	-22	nt	-21
TRPML1 agonist	2.9	-1.1	0.4	-0.7	2.2	-0.2&-0.3
PINK1 modulator	5.8%	-0.4%	2.7%	-0.4%	-3.9%	-2.8%&-0.1%
Six1-Eya2 inh	-5	-1	-9	-3	nt	-4

31. CCC(C(=O)Nc1ccccc1OC)n1c(C(=O)OC)cc2sc(Cl)cc21 (configuration not stated)
32. CN1CCN(CC(=O)Nc2cccc([N+](=O)[O-])c2)CC1
33. Cc1occc1-c1nnc(SCC(=O)c2c[nH]c3ccccc23)n1C
34. CC(C)NC(=O)Cn1ncn2c(cc3cc(F)ccc32)c1=O
35. CC1CCC(NC(=O)c2cc(S(=O)(=O)N(C)C)ccc2N2CCCC2)CC1 (configuration not stated)
36. O=C(Nc1ccccn1)c1ccc(Cl)s1
assay / compound	31	32	33	34	35	36
TRPML1 inh	7	-3	4	8	1	14
D2 agonist	nt	-3.2	1.0	nt	-3.3	-0.8
D2 PAM	nt	-2	3	nt	-12	-4
TRPML1 agonist	0.3	1.1	-0.9	0.4	0.0	-0.2
PINK1 modulator	2.1%	1.9%	-0.6%	1.4%	-2.1%	0.7%
Six1-Eya2 inh	nt	-2	-7	nt	3	6

37. CCn1nnc(-c2ccccc2NC(=O)c2cnccn2)n1
38. CCOc1ccc(C=NCC(O)c2ccccc2)cc1 (configuration not stated)
39. CC(Cc1c[nH]c2ccccc12)C(=O)O (configuration not stated)
40. COc1ccc(C(=O)NC2CCCc3ccccc32)cc1OC1CCN(C(C)=O)CC1 (configuration not stated)
41. CC(=O)N[C@H](Cc1c[nH]c2ccccc12)C(=O)O
42. CC1CCN(C2CCN(S(=O)(=O)c3ccc(F)cc3)CC2)CC1
assay / compound	37	38	39	40	41	42
TRPML1 inh	-9	-2	nt	-54*	1	16
D2 agonist	-4.4	3.0	-3.5	-6.0	-3.2	-1.1
D2 PAM	-24	-7	-8	0	-6	-14
TRPML1 agonist	-0.4	1.1	nt	0.1	-0.2	-0.1
PINK1 modulator	0.5%	1.1%	0.0%	7.4%	0.7%	0.0%
Six1-Eya2 inh	-3	6	-13	2	-8	1

43. O=C(Nc1ccc2c(c1)OCO2)c1cc(C2CCCCN2C(=O)c2ccc(Cl)cc2)on1 (configuration not stated)
44. COc1ccc(Cl)cc1C(=O)Nc1ccccc1N1CCN(C(=O)C(C)C)CC1
45. COc1ccc(OC)c(S(=O)(=O)NCc2cccnc2)c1
46. O=C(O)C1C2CCC(O2)C1C(=O)Nc1ccccc1Br (configuration not stated)
47. COc1cccc(S(=O)(=O)NCC(=O)Nc2ccc(C(C)(C)C)cc2)c1
48. CC(C)c1cccc(-c2ccc3c(c2)S(=O)(=O)c2cccc(C(=O)NCc4ccccc4Cl)c2C3=O)c1
assay / compound	43	44	45	46	47	48
TRPML1 inh	nt	42	33	nt	-6	-9
D2 agonist	7.3	-6.5	0.1	1.3	-4.3	-2.3
D2 PAM	-7	15	-7	10	17	-3
TRPML1 agonist	-0.5	1.5	0.7	nt	0.1	-0.5
PINK1 modulator	2.4%	-5.0%	0.2%	7.7%	4.3%	19%
Six1-Eya2 inh	-17	?	0	2	4	4
